High-throughput results deposited in PubChem BioAssay by National Center for Advancing Translational Sciences (NCATS).
RE007 growth inh: less growth of the S. pombe RE007 Vpr strain; S. pombe RE007 Vpr strain, BacTiter-Glo ATP luminescence, 24 h; control for the full effect not named in the record; Potency, µM (titrated, usually from 92.2 µM), without a hit: top-dose activity change, negative = less growth; 360,000 tested, 0.21% active; active = well fitted falling curve with a large enough effect; inconclusive = small, poorly fitted or top-dose-only effect; inactive = no such curve, though single readings can be large or run the other way;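 further: on the % scale 0 is the no-effect control and ±100 the full control effect; nearly all actives have a fitted effect of over 50% in size; the assay follows cell death caused by Vpr and the record does not say whether a fall means rescue or toxicity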
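Fission yeast strain RE007, carrying one chromosomally integrated HIV-1 vpr copy, was seeded at OD 0.01 in PMG+AL medium with 23 nL pinned compound. After 24 h at 30 °C and 99% humidity, viability was read by BacTiter-Glo luminescence.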
StopGo reporter: FMDV 2A StopGo reporter, luciferase signal | human cells with a luciferase reporter of 2A StopGo recoding; control for the full effect not named in the record | Potency, µM (highest dose often 57.9 µM), inactives show at the highest dose signal change, negative = less light | 410,000 tested, 1.2% active; active = well fitted falling curve with a large enough effect; inconclusive = small, poorly fitted or top-dose-only effect; inactive = no such curve, though single readings can be large or run the other way; tested in HEK293T cells; further: on the % scale 0 is the no-effect control and ±100 the full control effect; nearly all actives have a fitted effect of over 45% in size; luciferase light after 4 h
Cruzain Triton: inhibitors of Trypanosoma cruzi cruzain with detergent; purified cruzain, Z-FR-AMC fluorescence, 0.01% Triton; Potency, µM, for inactives: max response, negative = inhibition, actives largely listed as inhibitors; 200,000 tested, 0.43% active; AID 1478;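 further: plate controls were neutral wells for no effect and buffer without enzyme for full effect; nearly all actives have a fitted effect of over 40% in size; top concentration of the series not given in the record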
Target sequence (P25779 123-467 limits assumed): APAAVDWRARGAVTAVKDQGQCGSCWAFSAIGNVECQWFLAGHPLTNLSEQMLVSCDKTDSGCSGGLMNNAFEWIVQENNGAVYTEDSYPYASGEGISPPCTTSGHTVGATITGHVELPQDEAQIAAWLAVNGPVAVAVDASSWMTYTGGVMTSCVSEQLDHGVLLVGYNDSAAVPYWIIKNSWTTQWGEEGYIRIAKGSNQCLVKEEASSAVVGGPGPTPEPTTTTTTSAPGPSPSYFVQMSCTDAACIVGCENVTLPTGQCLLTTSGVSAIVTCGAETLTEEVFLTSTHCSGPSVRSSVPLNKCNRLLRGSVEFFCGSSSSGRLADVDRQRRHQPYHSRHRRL
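Enzyme 1.5 nM, Z-FR-AMC 2 uM, NaOAc 100 mM pH 5.5, DTT 5 mM, Triton X-100 0.01%; 15 min RT compound preincubation; kinetic ex360/em450, 60 s delta.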
Cruzain noTriton: inhibitors of Trypanosoma cruzi cruzain without detergent | P25779 | purified cruzain, Z-FR-AMC fluorescence, no detergent | Potency, µM, inactives show max response, negative = inhibition, most hits filed as inhibitors | 200,000 tested, 2.3% active | AID 1476;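 further: plate controls were enzyme without inhibitor for no effect and buffer without enzyme for full effect; nearly all actives have a fitted effect of over 40% in size; top concentration of the series not given in the record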
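Detergent-free condition (0.00005% Triton X-100) in acetate buffer pH 5.5 with DTT. 1.5 nM enzyme and compound were pre-mixed 15 min, then 2 uM Z-FR-AMC substrate added; reaction progress from fluorescence change between first and third reads (60 s).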
SARS PLP yeast: inhibitors of SARS-CoV papain-like protease in yeast; S. cerevisiae expressing SARS-CoV PLpro, growth rescue; control for the full effect not named in the record; Potency, µM (highest dose often 32.9 µM), without a hit: at the highest dose activity, positive = growth rescue; 330,000 tested, 0.19% active; active means well fitted rising curve with a large enough effect; inconclusive means small, poorly fitted or top-dose-only effect; inactive means no such curve, though single readings can be large or run the other way; further: 0% is about no effect; nearly all actives have a fitted effect of over 55% in size; growth read by luminescence after 48 h
NS1 function inh: blocks influenza NS1 protein function; S. cerevisiae slowed by influenza A NS1, growth recovery by OD600; Potency, µM (series often up to 46.1 µM), for the others: at the top dose activity, positive = more growth; 270,000 tested, 0.4% active; active means well fitted rising curve with a large enough effect; inconclusive means small, poorly fitted or top-dose-only effect; inactive means no such curve, though single readings can be large or run the other way; further: nearly all actives have a fitted effect of over 50% in size
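Read-out: OD600 growth recovery of NS1-expressing budding yeast. Cells grown overnight at 30C in -URA glucose medium, washed, resuspended and diluted 1:100 in 2% galactose assay medium, pH 6.0. Same strain lacking NS1 served as positive control.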
LASV entry inh: Lassa virus entry inhibition | AID 540256 | Lassa virus pseudotype entry inhibition, cell reporter; control for the full effect not named in the record | 300,000 tested, 1.2% active | Potency, µM (highest dose often 37.9 µM), without a hit: at the top dose activity change, negative = inhibition, usual class: inhibitors; active means well fitted inhibition curve with a large enough effect; inconclusive means small, poorly fitted or top-dose-only effect, or effect the other way; inactive means flat fitted curve, though single readings scatter; tested in HEK293 cells; further: on the % scale 0 is the no-effect control and ±100 the full control effect; nearly all actives have a fitted effect of over 50% in size; luciferase read-out
Marburg entry inh: Marburg virus entry inhibition; Marburg virus pseudotyped entry inhibition, cell reporter; control for the full effect not named in the record; about a third of the inactives were read at about 46 µM; Potency, µM (titrated, usually from 37.8 µM), for the others: top-dose activity change, negative = inhibition, hits mostly inhibitors; 300,000 tested, 1.8% active; active = well fitted inhibition curve with a large enough effect; inconclusive = small, poorly fitted or top-dose-only effect, or effect the other way; inactive = flat fitted curve, though single readings scatter; tested in HEK293 cells; about a fifth of its hits are not listed in these tables; further: on the % scale 0 is the no-effect control and ±100 the full control effect; luciferase read-out
* hit, by the source's call; ? = inconclusive; . = not tested or not shown; [ ] = another dose, or the depositor's remark. Unless noted, the call rests on the fitted dose curve; in most records, active means well fitted curve in the direction sought with a large enough effect; inconclusive means small, poorly fitted or top-dose-only effect, or another doubt; inactive means no such curve, though single readings can be large; an effect the other way counts as inactive or inconclusive. Potency means the concentration at half of the fitted maximal effect.

SMILES	RE007 growth inh	StopGo reporter	Cruzain Triton	Cruzain noTriton	SARS PLP yeast	NS1 function inh	LASV entry inh	Marburg entry inh
CN(CC(O)COCc1ccc2c(c1)OCO2)C1CCCCC1 (configuration not stated)	-8%	-14%	1.6%	-6%	10%	-11%	5%	-4%
CC(c1ccccn1)N(CCN(C)C)C(=S)Nc1cccc(F)c1 (configuration not stated)	5%	2%	3.7%	-2%	8%	4%	?	-10%
O=C(c1ccc(Br)o1)N1CCC(Cc2ccccc2)CC1	-4%	2%	.	.	-6%	-67%	-2%	?
COc1cc2c(cc1OC)CC1(CCCCC1)N=C2	-17%	2%	.	.	0%	7%	3%	-1%[46.1 µM]
COc1cccc(CNC(=O)CCC2CCCN(C/C=C/c3ccccc3OC)C2)c1 (configuration not stated)	-13%	?	.	.	0%	1%	?	?
CCCCN1C(=O)Nc2ccccc2S1=O (configuration not stated)	-16%	-15%	0.9%	-1%	-7%	-1%	-2%	-27%
Cc1ccccc1NC(=O)NNC(=O)OC(C)(C)C	13%	12%	.	.	1%	.	-5%	8%[46.1 µM]
CC(C)CCNc1c(-c2cccs2)nc2ccccn12	-23%	-10%	.	.	12%	-2%	-26%[46.1 µM]	10%[46.1 µM]
CCN(c1ccc(NC(=O)COC(=O)CCC(=O)c2ccc(F)cc2)cc1)C(C)C	4%	0%	-12%	-26%	-4%	-19%	12%	-27%[46.1 µM]
Oc1ccc(N2CCN(c3nc(-c4cccs4)nc4ccccc34)CC2)cc1	-5%	-14%	.	.	-6%	8%	11%[46.1 µM]	?
Cc1ccccc1C(=O)NC1CCN(CC(=O)Nc2ccc(Br)cc2)CC1	8%	-19%	.	.	?	0%	-16%[46.1 µM]	-1%[46.1 µM]
O=C(Oc1cc2oc(=O)c3c(c2cc1Cl)CCCC3)c1cccs1	12%	-2%	-4.7%	?	-34%	-10%	14%	-3%
O=C(CCNS(=O)(=O)c1ccc2[nH]c(=O)oc2c1)Nc1ccccc1	2%	1%	.	.	5%	17%	22%[46.1 µM]	?
CC(C)N(CCCNC(=O)Cn1c(=O)c2cccn2c2ccc(F)cc21)Cc1ccccc1	-4%	-2%	.	.	-2%	-7%	1%[46.1 µM]	?
Cc1cc(Cl)c(S(=O)(=O)Nc2ccccn2)cc1OCC(N)=O	4%	7%	-2.2%	?	10%	5%	0%	16%
COC(=O)c1ccc(OS(=O)(=O)c2ccc(NC(C)=O)cc2)cc1	-2%	?	-5.4%	3%	2%	-19%	-29%	?
CCOC(=O)N1CCC(NC(=O)CCC(=O)N2CCOc3ccc(Cl)cc32)CC1	10%	-23%	.	.	1%	.	5%	5%[46.1 µM]
O=C(Nc1cccc(O)c1)c1cc(-c2ccccc2Cl)on1	-13%	11µM*	.	.	-7%	-21%	5µM*	7.1µM*
CCOC(=O)N(NC(=O)C(O)(CC(C)C)CC(C)C)c1ccccc1	5%	-9%	-1.7%	15%	?	6%	?	-8%
O=C(CCc1ccccc1)N1CCCN(C(=O)CCc2ccccc2)CC1	-4%	-20%	-2.2%	5%	5%	-9%	?	10%
CSc1ccc(CCNC(=O)c2cc(-c3ccccc3)c(N3CCOCC3)s2)cc1	5%	-11%	.	.	3%	25%	?	?
COc1ccc(C(=O)Oc2ccc(C(C)=O)cc2)c(OC)c1	-1%	13%	0.3%	4%	-1%	-31%	?	0%
c1ccc2sc(NC3=NCN(C4CCCCCC4)CN3)nc2c1	11%	-4%	-6.2%	-6%	8%	-17%	-2%	?
Cc1cc(C)c(NC(=O)CN(C)S(=O)(=O)c2ccc3c(c2)n(C)c(=O)c(=O)n3C)c(C)c1	-7%	19%	.	.	4%	3%	-13%[46.1 µM]	-5%[46.1 µM]
CCOC(=O)c1[nH]c(C)c(CCC(=O)NCc2ccccc2Cl)c1C	.	-6%	0.7%	4%	.	.	-10%[46.1 µM]	.
Cc1ccc(Cn2c(=S)[nH]c3ccccc3c2=O)cc1	12%	41%[activator]	.	.	1%	-6%	.	.
CCS(=O)(=O)c1ncc(Cl)c(C(=O)Nc2ccc(S(=O)(=O)N(C)c3ccccc3)cc2)n1	5%	22µM*	-6.4%	?	1%	-1%	?	11µM*
CC1=NN(c2cccc(Cl)c2)C(=O)C12CC(C)=C(C)CS2 (configuration not stated)	-10%	?	-3.5%	-14%	-22%	-7%	-22%	-29%
O=C1NCCN(Cc2ccc(Cl)c(F)c2)C1CC(=O)N1CCc2ccccc2C1 (configuration not stated)	-19%	-1%	.	.	-2%	4%	?	-1%[46.1 µM]
COc1ccc(CCN(C)CC(O)COc2c(C)ccc(C)c2C)cc1OC (configuration not stated)	-4%	-27%	.	.	1%	5%	.	.
COc1cccc(/C=c2\s/c(=C/C(=O)c3ccc(C)cc3)[nH]c2=O)c1OC	-21%	-6%	-1.7%	-20%	5%	-2%	-1%	15%
COc1ccc(OC)c(S(=O)(=O)N2CCC(C(=O)NCCc3ccccc3)CC2)c1	9%	.	5.5%	3%	8%	-21%	10%	-11%
COC(=O)c1c(-c2cccs2)csc1NC(=O)c1cccnc1	0%	-19%	-7.5%	?	-12%	-86%	8%	22%
CC1CN(S(=O)(=O)c2ccc(C(=O)Nc3nnc(-c4ccco4)o3)cc2)CC(C)O1 (configuration not stated)	5%	8%	.	.	1%	-7%	-10%[46.1 µM]	-25%[46.1 µM]
COc1cccc(Cn2c(=O)n(-c3cccc(Cl)c3)c(=O)c3c4c(sc32)CN(C(C)=O)CC4)c1	.	-17%	-8.3%	?	.	.	.	?
CCN1CCN(c2ncc3c(n2)CCN(Cc2ccc(OC(C)C)cc2)C3)CC1	.	-18%	-1.0%	-2%	.	.	-14%[46.1 µM]	.
O=C(CSc1cn(CC(=O)N2CCCCC2)c2ccccc12)NCc1ccccc1Cl	.	29%	-3.5%	-1%	.	.	-1%[46.1 µM]	.
COc1ccc(N2C(=O)CC(N3CCN(S(=O)(=O)c4ccc(Cl)cc4)CC3)C2=O)cc1 (configuration not stated)	-11%	-15%	.	.	-2%	.	10%	13%[14.2 µM]
Cc1onc(C(=O)Nc2c(C)n(C)n(-c3ccccc3)c2=O)c1[N+](=O)[O-]	-10%	-8%	.	.	-1%	?	-9%	8%
NC(=O)C1CCN(c2c([N+](=O)[O-])cc(C(F)(F)F)cc2[N+](=O)[O-])CC1	15%	-11%	.	.	0%	-2%	?	-3%
O=C(COc1cccc2ccccc12)Nc1cc(Cl)ccc1C(=O)O	10%	-25%	.	.	-4%	4%	15%	-20%
COc1cc(NC(=O)CCc2c(C)nc3c(-c4ccc(F)cc4)c(C)nn3c2C)cc(OC)c1OC	.	?	-0.5%	11%	.	.	5%[46.1 µM]	18%[46.1 µM]
Cc1ccc(S(=O)(=O)NC(C(=O)Oc2ccc3ccc(=O)oc3c2)c2ccccc2)cc1 (configuration not stated)	10%	-6%	-21%	23%	-5%	-11%	-2%	-1%
CCc1nnc(NS(=O)(=O)c2ccc(N=Cc3c(O)n(-c4ccc(Cl)cc4)c(=O)[nH]c3=O)cc2)s1	8%	-6%	.	.	0%	.	8%	0%[46.1 µM]
Cc1ccc(-c2nnc(Nc3cccc(Br)c3)c3ccccc23)cc1S(=O)(=O)NCC1CCCO1 (configuration not stated)	.	63%[activator]	-4.3%	-21%	.	.	-18%[46.1 µM]	-28%[46.1 µM]
CCN1CCN(CC(=O)N2N=C(c3cccs3)CC2c2ccc(OC)cc2)C(=O)C1=O (configuration not stated)	-15%	-3%	.	.	0%	.	-3%	-5%
Cc1cc(Cl)c(S(=O)(=O)NCC2CCCO2)cc1OCC(=O)NC1CCCCC1 (configuration not stated)	24%[3.69 µM]	3%	0.8%	2%	-2%	-5%	0%	3%
Cc1nc(-c2ccccc2)sc1C(=O)O	3%	11%	.	.	-1%	.	13%[46.1 µM]	-3%
O=C1CC(=O)N(c2ccc3c(c2)OCO3)C(=O)N1	2%	3%	0.1%	-6%	12%	?	2%	14%
CCc1cc(S(=O)(=O)N2CCN(C(=O)c3ccco3)CC2)ccc1OC	2%	-8%	.	.	-5%	-1%	.	.
CCC1=C2CC[C@H]3C(=O)N(CC)C(=O)[C@H]3[C@H]2[C@@]2(Cc3ccccc3)C(=NCc3ccccc3)OC(=O)N2C1=O	19%	-4%	-0.2%	22%	0%	-2%	.	.
CCOc1ccc(N2CC(NC(=O)c3cccs3)CC2=O)cc1 (configuration not stated)	.	3%	0.7%	-11%	.	.	15%[46.1 µM]	.
COc1ccc(Cl)cc1NC(=O)COC(=O)CCNC(C)=O	-4%	-15%	-0.5%	7%	-3%	-6%	?	-10%
CN1CCN(Cn2cc(/C=C/C(=O)c3ccccc3)c3ccccc32)CC1	?	66%[activator]	-14%	5%	-29%	-102%	10%	?
COc1ccc(NC(=O)Cn2ccn(-c3ccc(F)c(F)c3)c(=O)c2=O)cc1Cl	.	-22%	-2.3%	?	.	.	?	.
N#C/C(=C\c1cccs1)C(=O)NCc1cccnc1	1%	-11%	-8.5%	3%	0%	-1%	12%	1%
CCc1ccccc1NC(=S)N1CCCCCC1	9%	8%	.	.	-1%	8%	.	.
Cc1ccc2nc(-c3ccccc3)cc(C(=O)NNC(=O)c3csc(N4CCOCC4)n3)c2c1	8%	-5%	.	.	1%	.	-10%	?
CC(SCc1ccc(C(=O)O)o1)c1ccc(C(=O)O)o1 (configuration not stated)	1%	-21%	.	.	-2%	4%	.	.
COc1ccccc1N1CCN(C(=O)c2cc3cc(Br)ccc3oc2=O)CC1	7%	-14%	-7.2%	2%	0%	-13%	.	.

Outcome played no part in choosing rows, and some 4.5% of all compounds hit somewhere here.
